Ecoli rRNA inh: inhibitors of bacterial rRNA selective over humanized ribosomes; E. coli WT GFP vs humanized-ribosome RFP mutants, fluorescence, 24 h; active compounds read low; DMSO median 0, no signal -100; GFP signal change (wild-type ribosome), % (no concentration beside the values); hit rate 1.6% among 350,000; AID 720706;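 active means significant combined selectivity score with lowered wild-type GFP, culture density cut under 30%, mutant RFP and density less affected; inactive means any of these conditions unmet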; further: one replicate is shown; some compounds called inactive have numbers as strong as hits
AF4-AF9 inh: inhibitors of human MLL-AF4/AF9 interaction; P42568; AlphaScreen, biotin-AF4 peptide binding to FLAG-AF9; inhibition, % at 10 µM; hit rate 0.47% among 350,000;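 active means every replicate reaching a set inhibition limit, whatever the replicate mean, cut at about 25% in these data; inconclusive means mean inhibition reaches that limit but some replicates miss it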;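 further: 0% = plate neutral control median and 100% = total signal loss; the record names both 10 and 1 µM as test concentration; the first replicate is given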
Target sequence (P42568 whole entry, looked up): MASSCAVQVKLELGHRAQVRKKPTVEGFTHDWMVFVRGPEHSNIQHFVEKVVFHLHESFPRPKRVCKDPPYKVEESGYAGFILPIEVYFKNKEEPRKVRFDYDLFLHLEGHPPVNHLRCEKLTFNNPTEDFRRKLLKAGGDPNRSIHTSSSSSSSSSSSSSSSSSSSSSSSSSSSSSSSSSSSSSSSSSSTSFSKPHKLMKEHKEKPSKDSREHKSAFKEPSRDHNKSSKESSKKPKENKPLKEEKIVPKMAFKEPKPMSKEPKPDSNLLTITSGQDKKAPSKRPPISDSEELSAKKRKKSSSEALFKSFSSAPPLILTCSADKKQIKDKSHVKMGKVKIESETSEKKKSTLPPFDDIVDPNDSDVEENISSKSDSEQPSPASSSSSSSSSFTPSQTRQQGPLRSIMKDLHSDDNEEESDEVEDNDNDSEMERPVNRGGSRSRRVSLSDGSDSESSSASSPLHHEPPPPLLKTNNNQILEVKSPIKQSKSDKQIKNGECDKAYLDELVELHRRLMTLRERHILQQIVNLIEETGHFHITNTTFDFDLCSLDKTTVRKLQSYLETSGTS
FGF22 binding: FGF22 (human) thermal shift binding; Q9HCT0; recombinant FGF22 thermal shift, SYPRO orange fluorescence; percent of sucrose octasulfate shift, DMSO zero; calls only at 9.99 µM; hit rate 1.5% among 340,000; AID 651658;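 active means melting point raised past a set limit in the mean and every replicate; inconclusive means no clear call; three in four hits are not shown here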
Target sequence (Q9HCT0 whole entry, looked up): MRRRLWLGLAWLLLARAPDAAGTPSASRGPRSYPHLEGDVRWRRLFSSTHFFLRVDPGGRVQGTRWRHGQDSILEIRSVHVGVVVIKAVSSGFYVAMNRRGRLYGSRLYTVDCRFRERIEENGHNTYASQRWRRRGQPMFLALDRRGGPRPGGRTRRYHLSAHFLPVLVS
Ecoli rRNA inh OD600: recorded beside Ecoli rRNA inh, whose call it bears; OD600 change, %; measured here: OD600 growth;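 optical density of the mix in the first replicate; 0 = DMSO median and -100 = no signal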
Ecoli rRNA inh RFP: also measured in Ecoli rRNA inh; calls as there; RFP signal change, %; measured here: RFP humanized mutant strains;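 first replicate; 0 = DMSO median and -100 = no signal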
Starred values were filed as active, the others as inactive; i = inactive; ? = inconclusive. These rows are one share of the data (hit frequency here may not be typical).

SMILES	Ecoli rRNA inh	Ecoli rRNA inh OD600	Ecoli rRNA inh RFP	AF4-AF9 inh	FGF22 binding
Cc1noc(C)c1NC(=O)N(C)C[C@@H]1Oc2c(NC(=O)c3ccc(-c4nccs4)cc3)cccc2C(=O)N([C@H](C)CO)C[C@H]1C	2	-2	3.7	-3.0	i
Cc1ccccc1-c1ccc2c(c1)O[C@H](CN(C)C(=O)Nc1ccc(C(F)(F)F)cc1)[C@@H](C)CN([C@@H](C)CO)S2(=O)=O	2	14	2.0	2.4	i
CCCC(=O)Nc1ccc2c(c1)C(=O)N(C)C[C@H](OC)[C@H](C)CN(CCc1ccccc1)[C@H](C)CO2	1	3	0.0	1.3	i
COc1ccc(S(=O)(=O)N(C)C[C@@H]2OCCCC[C@H](C)Oc3ccc(NS(=O)(=O)c4ccc(C)cc4)cc3C(=O)N([C@H](C)CO)C[C@@H]2C)cc1	1	12	-0.8	-0.3	i
OC(c1cc(Cl)cc(Cl)c1)c1ncc(-c2cccc(F)c2)[nH]1 (centres undefined)	-35	-46	-9.5	6.7	i
COc1ccc(S(=O)(=O)N(C)C[C@@H]2Oc3ccc(NS(=O)(=O)c4ccc(C)cc4)cc3C(=O)N([C@H](C)CO)C[C@@H]2C)cc1	-3	-13	2.9	-2.4	i
CN(C)CC(=O)Nc1ccc2c(c1)[C@@H]1C[C@@H](CC(=O)NCCc3ccccc3)O[C@@H](CO)[C@@H]1O2	1	12	0.1	-0.3	i
O=C(c1ccc(CS(=O)c2ccc(Br)cc2)o1)N1CCN(C2CCCCC2)CC1 (centres undefined)	-2	-31	-0.8	-0.1	i
C[C@H]1CCCCO[C@H](CN(C)Cc2ccc(Cl)c(Cl)c2)[C@@H](C)CN([C@@H](C)CO)C(=O)c2cc(NC(=O)Nc3ccc(F)cc3)ccc2O1	1	2	2.5	1.2	i
COCC#Cc1ccc2c(c1)O[C@H](CN(C)C(C)=O)[C@H](C)CN([C@H](C)CO)S2(=O)=O	2	-6	2.1	-5.4	i
CC(C)(C)[S@](=O)N1Cc2cc(C(=O)NC3CCC3)nc(-c3cccc(Br)c3)c2[C@@H]1CCO	-10	-23	13	-0.8	i
COc1ccc(CN(C)C[C@H]2OCCCC[C@H](C)Oc3ccc(NS(=O)(=O)c4ccccc4)cc3C(=O)N([C@@H](C)CO)C[C@@H]2C)cc1	2	-4	1.1	1.7	i
CC(C)NC(=O)N(C)C[C@@H]1Oc2ncc(-c3ccccc3F)cc2C(=O)N([C@@H](C)CO)C[C@H]1C	-3	10	1.1	-5.9	i
CO[C@H]1CN(C)C(=O)c2ccc(NC(=O)Nc3ccccc3)cc2OC[C@@H](C)N(C(C)=O)C[C@H]1C	-1	-6	0.5	1.2	i
O=C(NCc1ccccn1)[C@H]1[C@H](CO)[C@H]2Cn3c(cccc3=O)[C@@H]1N2CC1CCCCC1	1	3	-3.0	0.3	i
Cc1noc(C)c1S(=O)(=O)N(C)C[C@@H]1OCCCC[C@@H](C)Oc2ccc(NC(=O)NC3CCCCC3)cc2C(=O)N([C@H](C)CO)C[C@@H]1C	3	-2	-0.6	-1.9	i
C[C@@H]1CN([C@H](C)CO)C(=O)c2cc(NS(=O)(=O)c3cn(C)cn3)ccc2O[C@@H]1CN(C)Cc1ccncc1	-2	6	-1.8	-3.4	i
C[C@H](CO)N1C[C@H](C)[C@H](CN(C)C(=O)c2ccncc2)Oc2ncc(/C=C/c3ccccc3)cc2C1=O	1	8	5.0	-0.1	i
CCNC(=O)C[C@@H]1CC[C@@H]2[C@H](COC[C@@H](O)CN2C(=O)C2CC2)O1	2	20	-0.7	-1.1	i
C[C@@H]1CN([C@@H](C)CO)C(=O)c2cc(NS(=O)(=O)c3cccs3)ccc2O[C@@H](C)CCCCO[C@@H]1CN(C)C(=O)Nc1cccc2ccccc12	-6	-9	-0.6	2.5	i
C[C@@H]1CN([C@@H](C)CO)C(=O)c2cc(NC(=O)CCC(F)(F)F)ccc2O[C@@H](C)CCCCO[C@@H]1CN(C)C(=O)Nc1ccc2c(c1)OCO2	-1	-8	-3.7	1.7	i
O=C(Cc1ccccn1)NCC[C@H]1CC[C@@H](NC(=O)Nc2ccc(Cl)cc2)[C@@H](CO)O1	1	-2	-1.5	-20	i
O=C(C[C@@H]1C=C[C@@H](NC(=O)c2ccc3c(c2)OCO3)[C@H](CO)O1)NCc1ccc(Cl)cc1	5	2	-2.5	0.4	i
COc1ccccc1-c1ccc2c(c1)O[C@@H](CN(C)C(=O)c1ccncc1)[C@@H](C)CN([C@H](C)CO)S2(=O)=O	-4	-10	-1.2	-0.5	i
CN(C)C(=O)c1ccc(-c2ccc([C@H]3[C@H](C#N)N(C(=O)C4CC4)[C@H]3CO)cc2)cc1	5	14	2.7	1.2	i

Limited to Ecoli rRNA inh OD600 and FGF22 binding, for some of the entries so far:
| Structure | Ecoli rRNA inh OD600 | FGF22 binding |
| --- | --- | --- |
| CO[C@H]1CN(C)C(=O)c2ccc(NC(=O)Nc3ccccc3)cc2OC[C@@H](C)N(C(C)=O)C[C@H]1C | -6 | i |
| COCC#Cc1ccc2c(c1)O[C@H](CN(C)C(C)=O)[C@H](C)CN([C@H](C)CO)S2(=O)=O | -6 | i |

The listing continues.
SMILES	Ecoli rRNA inh	Ecoli rRNA inh OD600	Ecoli rRNA inh RFP	AF4-AF9 inh	FGF22 binding
C=CCN1[C@@H](CC(C)C)COc2cccc(NCCCN3CCOCC3)c2S1(=O)=O	-21	-26	0.6	5.3	i
C[C@H]1CN([C@@H](C)CO)S(=O)(=O)c2ccc(C#Cc3ccccc3F)cc2O[C@H]1CN(C)C(=O)c1ccc2c(c1)OCO2	0	-1	-0.4	-1.6	i
CC(=O)Nc1ccc2c(c1)C(=O)N(C)[C@H]1CC[C@H](CC(=O)NCC3CC3)O[C@H]1CO2	2	6	-1.2	-1.8	i
O=C(Nc1ccc(Cl)cc1)N[C@@H]1CC[C@H](CCNC(=O)c2ccccc2F)O[C@@H]1CO	-10	-11	2.0	-3.8	i
C[C@@H]1CCCCO[C@H](CN(C)C(=O)Nc2ccc(C(F)(F)F)cc2)[C@@H](C)CN([C@@H](C)CO)C(=O)c2cc(NC(=O)Nc3ccccc3)ccc2O1	4	1	-0.5	-2.4	i
CCOC(=O)N(O)c1ccc(C=Cc2ccccc2)cc1	-8	-15	-6.0	1.4	i
O=C(Nc1ccc(C(=O)N2CCCCC2)cc1)[C@H]1O[C@@H](n2ccc(=O)[nH]c2=O)[C@H](O)[C@@H]1O	7	-1	-2.1	1.4	i
COc1ccc(NC(=O)N(C)C[C@@H]2OCCCC[C@@H](C)Oc3ccc(NC(=O)c4ccccc4)cc3C(=O)N([C@H](C)CO)C[C@@H]2C)cc1	1	2	-1.0	0.0	i
C[C@@H]1CN([C@H](C)CO)C(=O)c2cccc(NS(=O)(=O)c3ccc(Cl)cc3)c2O[C@H]1CN(C)Cc1ccccc1	3	5	-0.9	2.4	i
C[C@@H]1CN([C@H](C)CO)C(=O)c2cc(NC(=O)Nc3ccc4c(c3)OCO4)ccc2O[C@@H]1CN(C)Cc1ccccc1	0	-3	4.5	12	i
COc1cccc(S(=O)(=O)Nc2ccc3c(c2)[C@H]2C[C@H](CC(=O)NCCc4ccccc4)O[C@@H](CO)[C@H]2O3)c1	-4	-16	4.1	0.1	i
CN(C)CC#Cc1ccc([C@H]2[C@@H](CO)N3CCCCN(CC4CCOCC4)C[C@H]23)cc1	9	20	1.6	8.8	i
C[C@@H]1CN([C@H](C)CO)C(=O)c2cc(NC(=O)c3ccncc3)ccc2O[C@@H]1CN(C)S(=O)(=O)c1ccccc1	1	0	-1.5	-0.3	i
C[C@H](CO)N1C[C@H](C)[C@@H](CN(C)C(=O)Nc2ccc(C(F)(F)F)cc2)Oc2ccc(NC(=O)Cc3cn(C)c4ccccc34)cc2CC1=O	-11	-3	-2.4	2.2	i
CCNC(=O)C1CCCN(Cc2cc(-c3ccccc3)on2)CC1 (centres undefined)	4	11	20	-2.5	i
COc1ccc2c3c([nH]c2c1)[C@H](CO)N(C(=O)Nc1ccccc1F)CC31CN(C(C)=O)C1	0	-1	-1.9	1.8	i
COc1ccc(S(=O)(=O)N(C)C[C@H]2Oc3ccc(NC(=O)C4CCCCC4)cc3C(=O)N([C@@H](C)CO)C[C@H]2C)cc1	1	-2	-1.1	-3.7	i
C[C@H](CO)N1C[C@H](C)[C@@H](CN(C)S(=O)(=O)c2cccs2)Oc2c(NS(=O)(=O)c3ccc(Cl)cc3)cccc2C1=O	-5	-5	1.9	-1.5	i
COCC#Cc1cnc2c(c1)C(=O)N([C@@H](C)CO)C[C@@H](C)[C@@H](CN(C)Cc1ccccc1)O2	0	-7	-3.4	-1.2	i
CCNC(=O)C[C@H]1CC[C@H]2[C@H](COc3ccc(NS(=O)(=O)c4ccccc4C)cc3C(=O)N2C)O1	2	6	-2.5	-2.1	i
CCc1cnc(N2[C@H](C#N)[C@H](c3ccc(C#CC(C)C)cc3)[C@@H]2CO)s1	-1	-57	1.0	4.6	i
Cc1noc(C)c1NC(=O)Nc1ccc2c(c1)C(=O)N([C@H](C)CO)C[C@H](C)[C@@H](CN(C)S(=O)(=O)c1c(C)noc1C)OCCCC[C@@H](C)O2	8	6	-0.5	-6.3	i
CNC[C@H]1Oc2ccc(NC(=O)C3CCCCC3)cc2CC(=O)N([C@H](C)CO)C[C@H]1C	2	4	-3.7	-8.9	i
Cc1noc(C)c1NC(=O)N(C)C[C@@H]1Oc2ccc(N(C)C)cc2CC(=O)N([C@@H](C)CO)C[C@H]1C	1	2	3.1	-4.5	i
C[C@@H]1CN([C@H](C)CO)C(=O)Cc2cc(NC(=O)Nc3ccccc3)ccc2O[C@@H]1CN(C)C(=O)NC1CCCCC1	4	0	-1.1	-0.6	i
Next records follow:
SMILES	Ecoli rRNA inh	Ecoli rRNA inh OD600	Ecoli rRNA inh RFP	AF4-AF9 inh	FGF22 binding
O=C(C[C@H]1C[C@H]2c3cc(NC(=O)c4cccnc4)ccc3O[C@H]2[C@@H](CO)O1)NCC(F)(F)F	7	1	-0.2	0.9	i
C[C@@H]1CCCCO[C@H](CN(C)C(=O)Nc2ccc(C(F)(F)F)cc2)[C@@H](C)CN([C@@H](C)CO)C(=O)c2cc(NS(=O)(=O)c3ccc(F)cc3)ccc2O1	2	-1	-2.4	1.7	i
Cn1cnc(S(=O)(=O)N2C[C@@H](O)COC[C@H]3O[C@H](CC(=O)NC4CCCC4)CC[C@@H]32)c1	1	13	-4.7	7.5	i
COc1cccc(CNC(=O)[C@H]2CCCN2C(=O)[C@H]2CCCN2C(=O)c2ccc(Cl)cc2)c1	10	3	1.2	-2.2	i
COc1ccc(-c2cnc3c(NC(C)=O)cc(-c4cc(F)ccc4OC)cn23)cc1OC	1	-2	-2.1	-6.1	i
COc1ccccc1CNC(=O)C[C@@H]1C[C@H]2c3cc(NC(=O)C4CCC4)ccc3O[C@H]2[C@H](CO)O1	-1	-7	1.3	-13	i
COC(=O)[C@H](CC(C)C)NC(=O)CC[C@H]1O[C@@H](n2cc(C)c(=O)[nH]c2=O)C[C@@H]1O	9	9	-0.5	0.5	i
C[C@@H]1CCCCO[C@@H](CN(C)CC2CCCCC2)[C@@H](C)CN([C@H](C)CO)C(=O)c2cc(NC(=O)c3ccccc3)ccc2O1	2	2	1.1	0.7	i
O=C(NCc1ccc(F)cc1)[C@H]1[C@H](CO)[C@H]2Cn3c(cccc3=O)[C@H]2N1CCC(F)(F)F	-1	-16	1.7	-0.9	i
COc1ccc(NC(=O)N[C@H]2C=C[C@H](CC(=O)NCc3ccccn3)O[C@@H]2CO)cc1	-5	-5	-1.5	-2.0	i
CC1(Cc2ccccc2OC(F)(F)F)C(=O)Nc2ccc(OC(F)(F)F)cc21 (centres undefined)	5	4	-1.5	?	i
Cc1noc(C)c1NC(=O)N[C@H]1CC[C@@H](CCNC(=O)C2CCCCC2)O[C@H]1CO	2	4	-3.1	-1.9	i
O=C(Nc1cc(F)ccc1F)N1CCCCN2[C@H](CO)[C@@H](c3ccc(-c4ccncc4)cc3)[C@H]2C1	-1	5	-2.7	8.8	i
CC(O)(c1cccc(F)c1)c1nc(-c2cccc(C(=O)O)c2)cs1 (centres undefined)	-26	-35	-6.5	1.0	i
C[C@H](O)C#Cc1ccc2c(c1)O[C@@H](CN(C)C(=O)C1CC1)[C@@H](C)CN([C@H](C)CO)S2(=O)=O	-5	-7	-3.7	-4.0	i
Cn1cc(-c2coc3c(C(=O)NCc4cccnc4)cccc23)cn1	-6	4	-2.4	-3.3	i

Single records (already shown). Order of screens: Ecoli rRNA inh	Ecoli rRNA inh OD600	Ecoli rRNA inh RFP	AF4-AF9 inh	FGF22 binding
Profile of `C[C@@H]1CCCCO[C@@H](CN(C)CC2CCCCC2)[C@@H](C)CN([C@H](C)CO)C(=O)c2cc(NC(=O)c3ccccc3)ccc2O1` → 2	2	1.1	0.7	i
Profile of `COc1cccc(CNC(=O)[C@H]2CCCN2C(=O)[C@H]2CCCN2C(=O)c2ccc(Cl)cc2)c1` → 10	3	1.2	-2.2	i
Profile of `Cn1cc(-c2coc3c(C(=O)NCc4cccnc4)cccc23)cn1` → -6	4	-2.4	-3.3	i
Profile of `COc1ccccc1CNC(=O)C[C@@H]1C[C@H]2c3cc(NC(=O)C4CCC4)ccc3O[C@H]2[C@H](CO)O1` → -1	-7	1.3	-13	i
